High-throughput results (PubChem BioAssay)
KCNQ2 inh – KCNQ2 channel blockers in CHO-K1 cells – cell-based, FluxOR thallium flux, B-score, primary screen (AID 2156). 1.1% of 310,000 active. B-score at 10 µM. 20 min; hits give low values; only compounds with negative scores are shown here; some inactives read as strong as hits. O88943;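 active means fluorescence ratio B-score at most minus 3 library SDs, with starting brightness B-score within 2 library SDs, cut at about -5.5 in these data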
Target sequence (O88943 whole entry, looked up): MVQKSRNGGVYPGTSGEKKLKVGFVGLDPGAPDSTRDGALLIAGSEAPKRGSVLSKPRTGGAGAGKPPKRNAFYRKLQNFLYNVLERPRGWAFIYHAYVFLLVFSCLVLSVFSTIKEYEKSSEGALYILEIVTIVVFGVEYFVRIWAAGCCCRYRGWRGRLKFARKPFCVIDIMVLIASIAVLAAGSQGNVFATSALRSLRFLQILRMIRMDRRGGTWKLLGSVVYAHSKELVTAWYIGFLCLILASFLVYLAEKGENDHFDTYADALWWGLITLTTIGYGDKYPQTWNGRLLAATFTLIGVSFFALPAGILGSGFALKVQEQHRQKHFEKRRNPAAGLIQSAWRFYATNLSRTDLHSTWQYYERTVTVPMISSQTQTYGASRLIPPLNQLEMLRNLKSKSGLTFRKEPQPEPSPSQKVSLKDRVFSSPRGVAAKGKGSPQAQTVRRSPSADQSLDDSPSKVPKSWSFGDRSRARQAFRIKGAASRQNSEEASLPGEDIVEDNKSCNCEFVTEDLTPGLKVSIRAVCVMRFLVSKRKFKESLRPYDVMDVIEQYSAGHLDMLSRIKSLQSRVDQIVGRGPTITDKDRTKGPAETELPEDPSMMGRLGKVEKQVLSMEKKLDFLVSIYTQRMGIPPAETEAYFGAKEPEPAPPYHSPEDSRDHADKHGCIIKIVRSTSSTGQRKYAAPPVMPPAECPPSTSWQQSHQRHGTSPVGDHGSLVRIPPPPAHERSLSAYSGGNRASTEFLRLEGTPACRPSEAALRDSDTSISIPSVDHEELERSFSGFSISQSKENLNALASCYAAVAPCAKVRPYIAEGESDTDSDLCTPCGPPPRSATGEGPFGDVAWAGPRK
KCNQ2 inh baseline – second read-out of KCNQ2 inh, no call of its own (marks repeat the call); B-score; measured here: initial fluorescence intensity artifact check;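 brightness before thallium and not channel activity; 0 = typical well and far values either way flag optical interference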
* hit, by the source's call; i = inactive. Only part of the results is shown (hit frequency here may not be typical).

Start of the listing, in advance (five entries):
SMILES | KCNQ2 inh | KCNQ2 inh baseline
S=C(c1ccc(-c2ccc(Cl)cc2Cl)o1)N1CCCCC1 | i | 0.75
COC(=O)c1onc(-c2c(OC)cc(OC)cc2OC)c1C(=O)OC | i | -0.06
O=S(=O)(c1ccc2ccccc2c1)N1CCCCCC1 | i | -1.96
Cc1ccc2nc(N/C(=N/S(=O)(=O)c3cccs3)c3ccccc3Cl)sc2c1 | i | 1.34
CCOc1ccc(C(C)C)cc1S(=O)(=O)N1CCOCC1 | i | 1.27

Results (from the top)
SMILES | KCNQ2 inh | KCNQ2 inh baseline
S=C(c1ccc(-c2ccc(Cl)cc2Cl)o1)N1CCCCC1 | i | 0.75
COC(=O)c1onc(-c2c(OC)cc(OC)cc2OC)c1C(=O)OC | i | -0.06
O=S(=O)(c1ccc2ccccc2c1)N1CCCCCC1 | i | -1.96
Cc1ccc2nc(N/C(=N/S(=O)(=O)c3cccs3)c3ccccc3Cl)sc2c1 | i | 1.34
CCOc1ccc(C(C)C)cc1S(=O)(=O)N1CCOCC1 | i | 1.27
O=C1CC(N2CCN(S(=O)(=O)c3cccc(C(F)(F)F)c3)CC2)C(=O)N1Cc1ccccc1 (stereo not given) | i | 1.18
COc1ccccc1/C=C1\S/C(=N/NC(=O)c2cccc(Br)c2)NC1=O | i | -0.64
Cc1cc(C)c(C#N)c(SCC(=O)N(C)C2CCCCC2)n1 | i | 0.43
CCN1CCCC1CNS(=O)(=O)c1ccc(C(=O)Nc2ccccc2)cc1 (stereo not given) | i | 2.39
CN1CCN(c2ccc(NC(=O)c3ccc(-c4cccc([N+](=O)[O-])c4)o3)cc2)CC1 | i | 0.14
Cc1ccc(-n2cccc2/C=C2/NC(=O)N(CC(=O)Nc3cccc(C)c3)C2=O)cc1 | i | 0.22
CCC(=O)N1c2ccccc2C(N(C(C)=O)c2ccccc2)CC1C (stereo not given) | i | -1.13
COCCCN1C(=O)CS/C1=N\S(=O)(=O)c1ccccc1 | i | 0.6
CCOC(=O)c1cc(-c2ccccc2)sc1NC(=O)C(C)OC(=O)c1cccnc1OCC (stereo not given) | i | -3.35
CCNc1nc(SCC(=O)Nc2ccc(Cl)c(Cl)c2)nc(N(C)C)n1 | i | 0.97
O=C(CSc1nc2ccccc2[nH]1)N/N=C/C=C/c1ccccc1[N+](=O)[O-] | i | -0.21
CC(C)CC(c1nnnn1Cc1cccs1)N1CCN(c2nc3ccccc3s2)CC1 (stereo not given) | i | -1.28
C=CCn1c(SCc2c(F)c(F)c(F)c(F)c2F)nc(O)cc1=O | i | 0.41
CCOC(=O)c1cc(NC(=O)c2ccoc2C)cc(C(=O)OCC)c1 | i | 0.75
CCN(CC)c1ccc(C=Nc2ccc(C#N)cc2)c(O)c1 | i | 1.59
Cc1ccccc1C(=O)NNC(=O)C(=O)N1CCCCC1 | i | -3.4
CCOC(=O)c1ccc(Nc2cnc3ccccc3n2)cc1 | i | -0.01
O=C1c2cccc(OCC(=O)N3CCCc4ccccc43)c2CCN1Cc1ccc(Br)cc1 | i | -0.81
O=C(CN1CCCCCC1)Nc1ccc([N+](=O)[O-])cc1Br | i | -0.04
Cc1ccn2c(=O)nc(SCC(=O)NCCc3ccccc3)nc2c1 | i | 0.9

3 entries from above, ordered by count of non-hydrogen atoms, rising.
SMILES | KCNQ2 inh | KCNQ2 inh baseline
O=S(=O)(c1ccc2ccccc2c1)N1CCCCCC1 | i | -1.96
Cc1ccn2c(=O)nc(SCC(=O)NCCc3ccccc3)nc2c1 | i | 0.9
CCN1CCCC1CNS(=O)(=O)c1ccc(C(=O)Nc2ccccc2)cc1 (stereo not given) | i | 2.39

Remaining list, next part
SMILES | KCNQ2 inh | KCNQ2 inh baseline
CC(=O)CSc1nnc(-c2ccc(S(=O)(=O)N3CCC(C)CC3)cc2)o1 | i | 0.42
COc1ccc(NC(=S)N2CCN(C(=O)C3CCCO3)CC2)cc1 (stereo not given) | i | -1.47
CCN(CC)C(=O)COC(=O)c1cc(-c2ccc(OC)cc2)nc2ccccc12 | i | -1.34
Cc1scc(C(=O)N2CCN(c3ccc(Cl)cc3)CC2)c1C | i | -1.58
Cc1ccc(C)c(S(=O)(=O)N2CCN(C(=O)CNC(=O)c3ccc4ccccc4c3)CC2)c1 | i | -0.88
Cc1cc(F)ccc1NC(=S)NCCc1ccccc1 | i | 1.6
O=C(NCC1(c2ccccc2)CCCC1)c1ccccc1Br | i | -1.36
Cc1ccc(-n2cccn2)c(CN2CCCC(C(=O)c3sccc3C)C2)c1 (stereo not given) | i | 0.06
CSc1ccc(CNC(=O)CCn2ccc3cc(S(=O)(=O)N4CCCC4)ccc32)cc1 | i | 0.34
O=C(/C=C\NCC(=O)c1ccccc1)c1ccc(F)cc1 | i | -0.18
CCOCCn1c(SCc2ccc(C)cc2)nc2c1c(=O)[nH]c(=O)n2C | i | -0.05
CCOc1ccc2nc(N3CCCC(C(=O)NCCCN4CC(C)CC(C)C4)C3)sc2c1 (stereo not given) | i | 0.02
c1csc(-c2nnc(-c3ccc(N4CCOCC4)cc3)o2)c1 | i | 1.54
O=C(COC(=O)c1cc[n+]([O-])cc1)Nc1ccc(Cl)cc1C(F)(F)F | i | -0.03
Cc1ccc(CNC(=O)C2CCCN(S(=O)(=O)c3c(C)n[nH]c3C)C2)cc1 (stereo not given) | i | -0.17
O=C(CN(Cc1ccccc1Cl)C(=O)CCC(=O)Nc1nccs1)NCC1CCCO1 (stereo not given) | i | -0.75
Cc1cccc(S(=O)(=O)c2c(N)n(Cc3ccco3)c3nc4ccccc4nc23)c1 | i | 1.13
CCOC(=O)c1ccc(NC(=O)CCNS(=O)(=O)c2cccs2)cc1 | i | 0.47
O=C1COc2ccc(C(=O)COC(=O)c3cnc(Cl)c(Cl)c3)cc2N1 | i | 0.24
CCn1nc(C)c(Br)c1-c1nc(CS(=O)(=O)c2ccsc2)no1 | i | -1.74
Cc1cc(/C=C(\C#N)C(=O)NCc2cccs2)c(C)[nH]1 | i | -0.18
CCCc1cc(=O)[nH]c(/N=C(/NC(=O)c2ccccc2)Nc2ccc3c(c2)OCCO3)n1 | i | -0.05
CCN1CCN(c2ccc(S(=O)(=O)N3CCCCC3)cc2NC(=O)Cc2ccc(OC)cc2)CC1 | i | 0.39
Cc1nonc1CN(C)C(=O)c1ccc(OC2CCN(C(=O)c3cccnc3)CC2)cc1 | i | -0.02
O=C(NCCN1CCOCC1)C(=O)NCc1ccc2c(c1)OCO2 | i | -0.71
The listing continues:
SMILES | KCNQ2 inh | KCNQ2 inh baseline
COCCN(CC(=O)NCC1CCCO1)C(=O)CCC(=O)Nc1ccccn1 (stereo not given) | i | 0.33
CCOc1ccc(NC(=O)CSc2nnc(Cn3cnc4ccccc43)n2C)cc1 | i | 0.13
O=C(Nc1cc2c3c(c1)CC(=O)N3CCC2)c1ccc(Br)o1 | i | -1.1
C=CCn1c(C(C)C)nc2ccccc21 | i | -0.04
COCCNc1cc(C)nc2c(-c3ccccc3OC)c(C)nn12 | i | -0.58
O=C(Nc1nc(-c2ccccc2)cs1)c1cccc(S(=O)(=O)N2CCN(Cc3ccccc3)CC2)c1 | i | 0.84
O=C(Nc1cc(Br)ccc1O)c1cc(-c2ccco2)on1 | i | -1.53
COCCOc1ccc(C(F)(F)F)cc1NC(=O)COC(=O)C1=COCCO1 | i | 1.55
FC(F)Oc1ccccc1NC(=S)Nc1cccnc1 | i | 0.73
Clc1cccc(Sc2ccc(-c3ccccn3)s2)c1 | i | -0.81
CCOC(=O)C1CCN(C(=O)c2cc3cc4ccc(OC)cc4nc3o2)CC1 | i | 1.07
COCCn1c(SCC(=O)NC2CCCCC2)nc2c(c1=O)SCC2 | i | 0.03
O=[N+]([O-])c1ccc(CSc2nnc(-c3cccnc3)o2)cc1 | i | -1.44
COc1cccc(OCCCn2cc(/C=C3/C(=N)N4C=C(C)SC4=NC3=O)c3ccccc32)c1 | i | 2.29
CC(C)C[C@H]1CN=C(Nc2ccccc2)N1CCC1CCCC1 | i | -0.02
CC1CC1c1ccc(/C=C(\C#N)C(=O)Nc2cccc(Cl)c2Cl)o1 (stereo not given) | i | 1.79
O=c1[nH]c(NCCO)nnc1Cc1ccccc1 | i | 0.29
Cc1nc(N2CCN(c3ccccn3)CC2)c2c(C)c(C(=O)Nc3ccccc3F)sc2n1 | i | -0.33
Cc1nc(NC(=S)Nc2ccccc2)sc1C | i | 0.19
O=C(CCCn1cnc([N+](=O)[O-])n1)Nc1ccc(Cl)cc1Cl | i | 0.68
CCC(C)NC(=O)Cn1nc(Cc2ccncc2)c2ccccc2c1=O (stereo not given) | i | -0.54
Cc1ccc(C)c(C(=O)COC(=O)c2ccccc2N2C(=O)C3C4CCC(C4)C3C2=O)c1 (stereo not given) | i | 0.35
O=C1CCCc2ccccc2N1Cc1ccc(Cl)cc1 | i | -0.03
CCC(=O)Nc1ccc(NC(=S)NC(=O)Cc2ccccc2)cc1 | i | 0.43
COc1ccc(O)c(C=Nc2cc(NC(C)=O)c(Cl)cc2Cl)c1 | i | -0.07
Later entries
SMILES | KCNQ2 inh | KCNQ2 inh baseline
Cc1ccc(S(=O)(=O)N2CCN=C2SCc2cccnc2)cc1 | i | 0.21
COc1cccc(C2=NOC(C(=O)N3CCc4ccccc4C3)C2)c1 (stereo not given) | i | -0.12
CCN(CC(=O)NCc1ccc(F)cc1)C(=O)/C=C/c1cccs1 | i | 0.49
CC(C)C[C@@H](COc1ccccc1)N1CCN(C)CCC1=O | i | 0.65
O=S(=O)(N/N=C\c1ccccc1O)c1ccc(Cl)cc1 | i | 1.1
Cc1cc2c(=O)[nH]cnc2s1 | i | 0.22
CCOC(=O)c1c(NC(=O)CSc2c[nH]c3ccccc23)sc2c1CCCC2 | i | -1.41
Cc1ccc(NC(=S)Nc2ccc(S(=O)(=O)N3CCOCC3)cc2)cc1S(=O)(=O)N1CCOCC1 | i | -1.42
Fc1ccc(OCc2nc3ccccc3s2)cc1 | i | 1.92
N#Cc1cccc(C(=O)OCC(=O)N2CCCc3ccccc32)c1 | i | -0.39
CC(=O)Oc1ccc(-c2cccc(C(=O)Oc3ccccc3)c2)cc1 | i | 2.99
O=C(O)c1ccc(CN2C(=O)c3cccc4c([N+](=O)[O-])ccc(c34)C2=O)cc1 | -8.64* | 2.03*
COC(=O)/C(=N/Nc1ccc(C)cc1)N1CCCc2ccccc21 | i | 0.25
O=C1N=C(N2CCOCC2)S/C1=C\c1ccc(OS(=O)(=O)c2ccccc2)cc1 | i | 0.88
CN(C)S(=O)(=O)c1ccc(C(=O)Nc2ccn(C)n2)cc1 | i | 1.29
CN(CC1CCCO1)S(=O)(=O)c1ccc(C(=O)Nc2nnc(-c3ccccc3)o2)cc1 (stereo not given) | i | 0.55
O=C(CN1CCCCCC1=O)OCc1ncc(-c2ccccc2)o1 | i | -0.01
CC(C)(C)c1ccc(C(=O)N2CCC(C(=O)NCc3ccco3)CC2)cc1 | i | 0.32
Cc1ccc(-n2nc3c(=O)n(CCCC(=O)NCCN4CCN(C)CC4)nc(C)c3c2C)cc1 | i | 2.68
CCOc1ccccc1NC(=O)CCNC(=O)c1ccco1 | i | -0.31
Cn1cc(Br)c(C(=O)NC(=S)N2CCN(c3ccccn3)CC2)n1 | i | 0.14
COC(=O)CSc1nnc2n(-c3ccc(OC)cc3)c(=O)c3c4c(sc3n12)CCCCC4 | i | 3.09
CCOc1cc(/C=C2\N=C3CCCCCN3C2=O)ccc1O | i | -0.06
CCOCCc1nnc(NC(=O)CCS(=O)(=O)c2ccccc2)s1 | i | -0.28
O=C(O)C1CC=CCC1C(=O)NCCCN1CCCC1=O (stereo not given) | i | -0.26
(further entries)
SMILES | KCNQ2 inh | KCNQ2 inh baseline
COc1ccc(OC)c(C2C(C(C)=O)=C(O)C(=O)N2CCc2ccc(OC)c(OC)c2)c1 (stereo not given) | i | 0.33
COc1cccc(CN(C)C(=O)c2cc(COc3ccc4ncccc4c3)on2)c1 | -7.46* | -0.01*
CC(=O)N1C(=O)C2(C(C#N)=C(N)Oc3cc(C)oc(=O)c32)c2ccccc21 (stereo not given) | i | -2.01
COc1ccc(N=C2C(=Nc3ccc(OC)cc3)N(c3ccc(OC)cc3)C(=S)N2C)cc1 | i | -1.62
Cc1ccc(S(=O)(=O)N(OCc2ccccc2)C(C)C(=O)O)cc1 (stereo not given) | i | 0.17
COC(=O)c1ccsc1NC(=O)CN1CCN(c2ccc(F)cc2)CC1 | i | 1.15
COc1ccc(Br)cc1C(=O)N/N=C/c1cccnc1 | i | 0.74
COc1cccc2cc(C(=O)N3CCC(C)CC3)c(=O)oc12 | i | 2.31
c1ccc2cc(CNCc3cccc4ccccc34)ccc2c1 | i | -1.38
Cc1ccc2c(c1)c1c3n2CCN(CC(O)CNC(C)C)C3CCC1 (stereo not given) | i | 1
CC1CCN(C(=S)NC2CCCCC2)CC1 | i | 0.87
COC(=O)C1=C(N)Oc2cc(C)n(CC3CCCO3)c(=O)c2C1c1ccc(Cl)cc1 (stereo not given) | i | 1.12
COc1ccc(-c2cc(C(F)F)n3ncc(C(=O)Nc4c(C)n(C)n(-c5ccccc5)c4=O)c3n2)cc1 | i | 0.57
Cn1ccc2c([N+](=O)[O-])cccc2c1=O | i | -0.58
C=CCN(CC=C)c1nc2ccccc2nc1C(C#N)C(=O)OCCOC (stereo not given) | i | 0.46
CCCn1c(SCc2nc3ccccc3s2)n[nH]c1=O | i | -0.61
Clc1ccc(CSc2nnc([C@@H]3CCCN3)o2)cc1Cl | i | 2.14
Cc1ccccc1NC(=O)NC1CCCCC1C (stereo not given) | i | -3.07
NNC(=O)c1cc2cc(OC(F)(F)F)ccc2[nH]1 | i | 1.12

Single records, as listed above. Order of values: KCNQ2 inh, KCNQ2 inh baseline
`CCC(C)NC(=O)Cn1nc(Cc2ccncc2)c2ccccc2c1=O` (stereo not given) is entered as i, -0.54
`Cc1nc(N2CCN(c3ccccn3)CC2)c2c(C)c(C(=O)Nc3ccccc3F)sc2n1` is entered as i, -0.33
`COc1ccc(-c2cc(C(F)F)n3ncc(C(=O)Nc4c(C)n(C)n(-c5ccccc5)c4=O)c3n2)cc1` is entered as i, 0.57
